Screening results: PubChem, National Center for Advancing Translational Sciences (NCATS)
Prx2 Sm inh = Schistosoma Mansoni Peroxiredoxins (Prx2) | hit rate 0.07% among 65,000 | Schistosoma mansoni peroxiredoxin 2 (Prx2) | Potency, µM | S. mansoni Prx2 activity coupled to TGR/GSH (TGR is thioredoxin glutathione reductase), NADPH fluorescence loss, qHTS; some inactives read as strong as hits; active means full or partial inhibition curve with a strong effect at the top dose; inconclusive means weaker partial or single-point curve; inactive means no accepted curve; further: series up to 57 µM; many of its hits are not listed in these tables
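Purified S. mansoni TGR and Prx2 in pH 7.4 phosphate buffer with EDTA and Tween-20 were preincubated with compounds for 15 min. Further NADPH/GSH was added, then a 2.5 mM H2O2 aliquot initiated turnover, followed kinetically by NADPH fluorescence.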
Anthrax LT inh = qHTS Assay for Anthrax Lethal Toxin Internalization; Cells, anthrax lethal toxin internalization, FRET ratio (460/530); Potency, µM (top dose mostly 40 µM), for the others: at the top dose activity change, negative = inhibition, usual class: inhibitors; hit rate 0.67% among 70,000; AID 912, 2007; active = well fitted falling ratio curve with the 530 nm signal flat; inconclusive = other ratio curves, or a change in one channel alone; inactive = flat curves in the ratio and both channels; the % refers to the ratio; further: on the % scale 0 is the no-effect control and ±100 the full control effect; nearly all actives have a fitted effect of over 50% in size; tested in ME-180 cells; beta-lactamase reporter
* = called active by the depositor; ? = inconclusive; nt = not tested or not shown; & = joins results of further samples; [ ] = another dose, or the depositor's remark. Potency means the concentration at half of the fitted maximal effect. This is a subset, so the mix of outcomes need not match the whole.

Structure | Prx2 Sm inh | Anthrax LT inh
CCn1nnnc1-c1ccc(OC)c(S(=O)(=O)N2CCCCC2)c1 | >57 | nt
O=C(Cc1cccs1)Nc1ccc2c(c1)C(=O)OC2 | >57 | -9%
CC1CCCC(C)N1CCNC(=O)Cn1nc(-c2ccccc2)ccc1=O (stereo not given) | >57 | 11%
COc1cccc(C(CC(=O)NCC2CCCO2)NS(=O)(=O)c2ccc(C)cc2)c1OC (stereo not given) | >57 | 7%
Cc1c(C(=O)NCc2ccco2)sc2nc(-c3ccccc3)cn12 | >57 | -26%
O=C(O)C1Nc2c(O)cccc2C2C=CCC12 (stereo not given) | >57 | -14%
Cn1cc(C(=O)N2CCC3(CC2)OCCO3)c2c3ccccc3n(C)c2c1=O | >57 | 8%
CCc1ccc(OCC(=O)N(C)C2CCS(=O)(=O)C2)cc1 (stereo not given) | >57 | -13%
COc1ccc(NS(=O)(=O)c2ccc3c(c2)oc(=O)n3C)c(OC)c1 | >57 | -4%
Cc1ccc(C)c(NC(=O)C2CC(O)CN2C(=O)OCc2ccccc2)c1 (stereo not given) | >57 | -17%
CCOC(=O)N1CCN(c2c(NCCCOC(C)C)c(=O)c2=O)CC1 | >57 | -14%
CC(=O)N1CCC2(CCCN(C(c3ccccc3)c3ccccc3)C2)CC1 | >57 | -9%
O=C(CCCCCNc1nc(=S)[nH]c2ccccc12)N1CCN(c2ccccn2)CC1 | >57 | ?
COc1ccc(C(C)=O)cc1COC(=O)c1cc(C)oc1C | >57 | 3%
COc1ccccc1N(CN1CCCC1=O)C(=O)COc1ccccc1 | >57 | 1%
O=C(CSc1nc(-c2ccccc2)nc2c1CCCC2)N1CCOCC1 | >57 | -17%
Cc1ccc(CNc2nc3c([nH]2)c(=O)n(C)c(=O)n3C)cc1 | >57 | nt
COc1ccc(C)cc1-n1nnnc1SCC(=O)NC(=O)NCc1ccco1 | >57 | 0%
c1ccc2c[n+](CCCC[n+]3ccc4ccccc4c3)ccc2c1 | >57 | 0%[8 µM]
COc1cccc(N2C(=O)CC(=O)NC2=O)c1 | >57 | -10%
O=C(NCc1ccc2c(c1)OCO2)c1ccc2c(=O)n(C3CCCC3)c(=O)[nH]c2c1 | >57 | ?
COc1cccc(C2=CC(c3ccc(C)cc3)n3ncnc3N2)c1 (stereo not given) | >57 | nt
CCCc1cn(S(=O)(=O)c2ccc(OC)cc2OC)nc1N | >57 | 11%
COCCNC(=O)CN1CCN(C(c2ccccc2)c2ccccc2)CC1 | >57 | 3%
CC(=O)Nc1cccc(NC(=O)CSc2nnc(Cc3cccn3C)n2CCc2ccccc2)c1 | >57 | 8%
COc1cccc(CNCC(=O)N2C(C)CCCC2C)c1 (stereo not given) | >57 | 3%
COc1ccc(-n2c(C)c(C(C)=O)c(C(C)=O)c2C)cc1OC | >57 | -10%
CN(C)S(=O)(=O)N(CC(=O)Nc1ccccc1C(F)(F)F)c1ccccc1 | >57 | 4%
Cn1nc(C(=O)NCC2CCCO2)c2ccccc2c1=O (stereo not given) | >57 | 4%
CC(=NCc1ccco1)c1c(O)n(C2CCCCC2)c(=O)[nH]c1=O | >57 | 17%
CC(C)(C)C1CCC(OC(=O)c2ccncc2)CC1 (stereo not given) | >57 | -4%
COc1ccc(S(=O)(=O)N2CCC(C(=O)Nc3ccccc3C)CC2)c2cccnc12 | >57 | 2%
CCOC(=O)N1CCN(S(=O)(=O)c2cc(Br)cc3c2N(C(=O)C2CC2)CC3)CC1 | >57 | -3%
CCn1cc(C(=O)OCc2cccc(Br)c2)c(=O)c2ccc(C)nc21 | >57 | 2%
O=S(=O)(NC1CC1)c1cccc(S(=O)(=O)N2CCCC2)c1 | >57 | -1%
COc1cccc(-n2nnc3c(=O)n(CC(=O)N4CCC(Cc5ccccc5)CC4)cnc32)c1 | >57 | ?
Cc1ccc(S(=O)(=O)N2CCCCC2C(=O)NCc2ccco2)cc1 (stereo not given) | >57 | 8%
CN(C)c1cccc2c(S(=O)(=O)Nc3ccccn3)cccc12 | >57 | -9%
O=C(O)C1Cc2c([nH]c3ccccc23)C(c2ccc3c(c2)OCO3)N1 (stereo not given) | >57 | -10%
O=c1cccc2n1C[C@H]1C[C@@H]2CN(CCO)C1 | >57 | 0%
COc1ccccc1-c1nnc(SCC(=O)OC(C)C)o1 | >57 | nt
CC(=O)CC1OC(=O)C(Br)=C1NCc1ccccc1 (stereo not given) | >57 | ?
CCN(CCCNC(=O)C1CCCN(S(=O)(=O)CC)C1)c1cccc(C)c1 (stereo not given) | >57 | -24%
CCOC(=O)N1CCN(C(=O)CN(c2cccc(C)c2)S(=O)(=O)c2ccccc2)CC1 | >57 | -5%
CCOC(=O)C1=C(C)N=C2SC(C)C(=O)N2C1c1ccc(OC(C)=O)c(OCC)c1 (stereo not given) | >57 | -4%
Cc1ccccc1-n1nnnc1SCC(N)=O | >57 | -2%
COc1ccc(OC)c(NC(=O)C2CCN(S(=O)(=O)c3cccs3)CC2)c1 | >57 | -4%
CC1(C(=O)NCC2CC2)C=CC2(CCCCC2)N1C(=O)c1ccccc1 (stereo not given) | nt | -17%
Cc1ccc2c(c1)CC1(CN2C)C(=O)NC(=O)N(C(C)C)C1=O (stereo not given) | >57 | 1%
CCOc1ccc(Cl)cc1/C=N/O | nt | ?

Later entries.
Structure | Prx2 Sm inh | Anthrax LT inh
O=C(Nc1ccc(C(=O)N2CCCC2)cc1)c1ccccc1F | >57 | 2%
O=C(c1cc2n(n1)C(C(F)(F)F)CC(c1ccco1)N2)N1CCN(c2ccccn2)CC1 (stereo not given) | >57 | -10%
CC(=O)c1cccc(NC(=O)c2ccco2)c1 | >57 | -6%
COc1ccc(N(CC(=O)NCCSc2ccccn2)S(C)(=O)=O)cc1Cl | nt | -6%
COc1ccc(OCc2cccc(C(=O)N3CCCC3)c2)cc1 | >57 | 17%
CC(C)c1ccc2oc(=O)cc(CN3CCN(c4ccccc4)CC3)c2c1 | >57 | ?
N=c1n(CCO)c2ccccc2n1CCOc1ccccc1 | >57 | 9%
Cc1cccc(N2C(=O)CC(N3CCOCC3)C2=O)c1 (stereo not given) | nt | -5%
Cc1nnc(SCC2=C(C(=O)O)N3C(=O)[C@@H](NC(=O)Cn4cnnn4)[C@@H]3SC2)s1 | >57&>57 | -22%[3.58 µM]
CCS(=O)(=O)c1ccc(NC(=O)c2ccccc2Cl)c(O)c1 | >57 | -2%
O=C(c1cc2cc(Cl)cc(Cl)c2oc1=O)N1CCOCC1 | >57 | 8%
CCCn1c(=O)c2ccccc2n2c(SCc3cc(=O)n4ccsc4n3)nnc12 | >57 | -9%
Cc1ccccc1NC(=O)C1CCCN1C(=O)NC1CCCCC1 (stereo not given) | >57 | 18%
COc1ccc(-c2nc(C3CCCCC3)no2)cc1OC | >57 | -14%
CC(C)C(=O)Nc1cc(C(F)(F)F)ccc1N1CCOCC1 | >57 | ?
O=C(CCC(=O)N(CC(=O)NC1CCCCC1)c1ccc2c(c1)OCO2)Nc1ccccn1 | >57 | -7%
COc1cc(CC(=O)Nc2sccc2C(N)=O)cc(OC)c1OC | >57 | 14%
COc1ccc(N(CC(=O)NCc2ccco2)S(C)(=O)=O)cc1 | >57 | -16%
CCOC(=O)c1c(NC(=O)Cc2cccs2)sc2c1CCCC2 | >57 | 13µM*
O=C(O)Cc1ccc(-c2ccccc2)cc1 | >57 | 0%[3.58 µM]

Filtered by structure: those above containing a CF3 group.
Structure | Prx2 Sm inh | Anthrax LT inh
CN(C)S(=O)(=O)N(CC(=O)Nc1ccccc1C(F)(F)F)c1ccccc1 | >57 | 4%
O=C(c1cc2n(n1)C(C(F)(F)F)CC(c1ccco1)N2)N1CCN(c2ccccn2)CC1 (stereo not given) | >57 | -10%
CC(C)C(=O)Nc1cc(C(F)(F)F)ccc1N1CCOCC1 | >57 | ?

Later entries.
Structure | Prx2 Sm inh | Anthrax LT inh
Cc1cc(N2CCOCC2)nc(NCc2ccccc2)n1 | nt | -2%
CN(C)c1ncc2ncc(=O)n(CCC#N)c2n1 | >57 | -16%
COc1cccc(Nc2nc(N)nc(C(F)(F)F)n2)c1 | >57 | -18%
COc1ccc(/C(O)=C2/C(=O)C(=O)N(CC3CCCO3)C2c2cccc(OC)c2)cc1 (stereo not given) | >57 | -12%
CCc1nnc(NC(=O)c2ccc(S(=O)(=O)N3CCN(Cc4ccccc4)CC3)cc2)s1 | >57 | 0%
N[C@@H](C(=O)O)c1ccc(O)c(C(=O)O)c1 | >57 | ?
CCOC(=O)N1CCN(C(=O)c2ccc(S(=O)(=O)c3ccc(C)cc3)c(NC(C)=O)c2)CC1 | >57 | -9%
COc1cc(S(=O)(=O)NCCN2CCOCC2)c(OC)cc1Cl | >57 | -9%
COc1ccc(C(=O)N2CCC3(CCCN(Cc4nccs4)C3)CC2)cc1 | >57 | ?
CCOC(=O)c1sc2nc(N3CCCC3)c3c(c2c1N)CC(C)(C)OC3 | >57 | 0%

Some of the entries above in a different format.
Results follow in this order: Prx2 Sm inh, Anthrax LT inh
COc1ccc(C(=O)N2CCC3(CCCN(Cc4nccs4)C3)CC2)cc1
  >57, ?
COc1cc(S(=O)(=O)NCCN2CCOCC2)c(OC)cc1Cl
  >57, -9%

The list goes on.
Structure | Prx2 Sm inh | Anthrax LT inh
Cc1cc(Nc2ccccc2)nc(-c2ccccc2O)n1 | >57 | 13µM*
Cc1ccc(C(=O)N2CCN(C(=O)c3ccc(C)c(C)c3)C(C)C2)cc1C (stereo not given) | >57 | -4%
Cc1noc(C)c1CSc1nc2[nH]ncc2c(=O)n1-c1ccccc1 | >57 | -11%
Cc1ccc(S(=O)(=O)NC(CC(=O)NCC2CCCO2)c2ccco2)cc1 (stereo not given) | >57 | 3%
CC(=O)c1ccc(N2CCN(C(=O)c3cc4c(=O)n(C)c5ccccc5c4n3C)CC2)cc1 | >57 | -7%
CS(=O)(=O)N1CCC2(CC1)CN(c1ccncc1)C2 | >57 | 3%
CCCc1nc2scc(-c3ccccc3)c2c(=O)n1N | >57 | -26%
CCOC(=O)OCC1OC(C#Cc2ccc(F)cc2F)C=CC1OC(=O)OCC (stereo not given) | nt | 1%[8 µM]
Cc1onc(-c2ccccc2Cl)c1C(=O)N(C)C1CCCCC1 | >57 | -14%
COc1ccc(N2CCN(c3ccc(NC(=O)c4ccc5c(c4)OCO5)cc3C#N)CC2)cc1 | >57 | 0%

5 of the compounds above, with two lines to a compound.
Screens in order: Prx2 Sm inh	Anthrax LT inh
CS(=O)(=O)N1CCC2(CC1)CN(c1ccncc1)C2
 : >57	3%
CCCc1nc2scc(-c3ccccc3)c2c(=O)n1N
 : >57	-26%
Cc1ccc(S(=O)(=O)NC(CC(=O)NCC2CCCO2)c2ccco2)cc1 (stereo not given)
 : >57	3%
COc1ccc(N2CCN(c3ccc(NC(=O)c4ccc5c(c4)OCO5)cc3C#N)CC2)cc1
 : >57	0%
Cc1cc(Nc2ccccc2)nc(-c2ccccc2O)n1
 : >57	13µM*

Next part
Structure | Prx2 Sm inh | Anthrax LT inh
CN1CCc2c(sc3c2C(=O)NC(c2cn(Cc4ccccc4)c4ccccc24)N3)C1 (stereo not given) | >57 | ?
O=C1C(c2ccc(F)cc2)N(Cc2ccc3c(c2)OCO3)C(=O)CN1C1CCCC1 (stereo not given) | >57 | 4%
O=C(NC1=NCCS1)c1ccc(OCC2CCCO2)cc1 (stereo not given) | >57 | 5%
COc1cc(OC)nc(NC2OC(=O)c3ccccc32)n1 (stereo not given) | >57 | 18%
COc1ccc(OCCCC(=O)N2CCCc3ccccc32)cc1 | >57 | -3%
Cc1nc(N2CCN(S(=O)(=O)c3cccc4nonc34)CC2)c2c3c(sc2n1)CCCC3 | >57 | 2%
COc1nc(-c2ccccc2)ccc1-c1noc(-c2ccc(F)cc2)n1 | >57 | nt
O=C(c1cccc(C(F)(F)F)c1)N1CCCC1 | >57 | -19%
O=C(c1ccco1)N1CCC2(CC1)CN(c1ccc(-c3ccccc3)cc1)C2 | >57 | -11%
Cn1c2c(c(=O)n(C)c1=O)C(CC(=O)Nc1ccccc1)C(=O)N2 (stereo not given) | >57 | nt

A different layout for part of the listing above.
The line under a structure holds: Prx2 Sm inh	Anthrax LT inh
> O=C(NC1=NCCS1)c1ccc(OCC2CCCO2)cc1 (stereo not given)
  >57	5%
> Cc1nc(N2CCN(S(=O)(=O)c3cccc4nonc34)CC2)c2c3c(sc2n1)CCCC3
  >57	2%

Later entries:
Structure | Prx2 Sm inh | Anthrax LT inh
Cc1ccc(OCc2nc(C#N)c(NCc3ccco3)o2)cc1 | >57 | -19%
COC(=O)C1=C(N)OC2=C(C(=O)CCC2)C1c1cccs1 (stereo not given) | >57 | 24%
COc1cccc(C2N(c3ccc(Cl)cc3)C(=O)C3CCCN32)c1 (stereo not given) | >57 | 3%
COc1ccc(N2CC(C(=O)NCCCN3CCOCC3)CC2=O)cc1 (stereo not given) | nt | -9%
OCCO | nt | -8%
CCc1ccccc1NS(=O)(=O)c1ccc2[nH]cc(C(=O)NCC3CCCO3)c(=O)c2c1 (stereo not given) | >57 | 21%
CCOC(=O)c1sc2nc(SCC#N)n(CC3CCCO3)c(=O)c2c1C (stereo not given) | >57 | -3%
O=C(NCCN1CCOCC1)c1cc(-c2cccs2)on1 | >57 | -12%
N[C@H](CCCC(=O)O)C(=O)O | >57 | -4%
CCc1cc2c(NC(C(=O)O)C(C)C)ncnc2s1 (stereo not given) | >57 | 3%
O=C(NCc1cccnc1)c1ccc2c(c1)OCO2 | >57 | ?
